Screens (PubChem BioAssay)
GLA inh pH 4.5 = alpha-galactosidase A (human) inhibition, pH 4.5 | purified enzyme, 4-MU-alpha-Gal fluorescence, pH 4.5 | activity change, negative = inhibition, % at 105 µM | P06280 | AID 1467 | 230,000 tested, under 10 active; inconclusive = small, poorly fitted or top-dose-only inhibition, or a rising curve; inactive = flat fitted curve, though single readings scatter; no compound was filed as active;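 note: 0% = full activity with enzyme and -100% = basal without enzyme; dose as in the result columns while the protocol names 77 µM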
Rango release inh = inhibitors of RanGTP-induced Rango-importin beta complex dissociation; Biochemical FRET Rango-importin beta, RanGTP-induced dissociation; O95149+P62826; Potency, µM (highest dose often 46.1 µM), without a hit: top-dose activity change, negative = inhibition; 340,000 tested, 0.071% active; active means falling FRET ratio curve, often poorly fitted, with flat reads before Ran was added; inconclusive means other falling curves, or compound fluorescence or quenching; inactive means flat or rising ratio curve;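 note: potency is the fitted concentration of half-maximal effect; % of control where 0% means no effect; nearly all actives have a fitted effect of over 45% in size; -100% = wells without RanGTP and RCC1; the record marks most hits as doubtful in a second field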
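Rango (0.1 uM)–importin beta (0.25 uM) complex; RanGTP-RCC1 trigger; 45 min RT; CFP/YFP FRET read.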
miR-21 reporter = raises the signal of a miR-21 reporter; HeLa miR-21 FLuc reporter, luciferase, 48 h; Potency, µM (doses to about 38.3 µM), for the others: at the top dose reporter change, positive = more light; 340,000 tested, under 10 active; active = well fitted rising curve with a large enough effect; inconclusive = small, poorly fitted or top-dose-only effect; inactive = no such curve, though single readings can be large or run the other way;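 note: % of control where 0% means no effect; miR-21 action dims this reporter so a rising signal means less miR-21 action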
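Compounds were titrated across several concentrations (up to approximately 40 uM) and incubated 48 hours with HeLa miR-21-FLuc reporter cells (miR-21 target sequence downstream of FLuc, endogenous miR-21). Readout was firefly luciferase luminescence after lytic detection reagent.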
Rango-impB inh = Rango-importin beta binding inhibition. Q14974. 340,000 tested, 0.031% active. Potency, µM (titrated, usually from 92.2 µM), for inactives: at the highest dose inhibition of complex formation. Rango CFP/YFP FRET sensor + importin beta, 45 min. AID 540263; active = rising FRET ratio curve, often small or poorly fitted; inconclusive = mostly compound fluorescence or quenching in the first reads; inactive = flat curves in all reads;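 note: potency is the fitted concentration of half-maximal effect; 0% = DMSO wells and 100% = buffer wells lacking importin beta; nearly all actives have a fitted effect of over 15% in size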
Target sequence (Q14974 whole entry, looked up): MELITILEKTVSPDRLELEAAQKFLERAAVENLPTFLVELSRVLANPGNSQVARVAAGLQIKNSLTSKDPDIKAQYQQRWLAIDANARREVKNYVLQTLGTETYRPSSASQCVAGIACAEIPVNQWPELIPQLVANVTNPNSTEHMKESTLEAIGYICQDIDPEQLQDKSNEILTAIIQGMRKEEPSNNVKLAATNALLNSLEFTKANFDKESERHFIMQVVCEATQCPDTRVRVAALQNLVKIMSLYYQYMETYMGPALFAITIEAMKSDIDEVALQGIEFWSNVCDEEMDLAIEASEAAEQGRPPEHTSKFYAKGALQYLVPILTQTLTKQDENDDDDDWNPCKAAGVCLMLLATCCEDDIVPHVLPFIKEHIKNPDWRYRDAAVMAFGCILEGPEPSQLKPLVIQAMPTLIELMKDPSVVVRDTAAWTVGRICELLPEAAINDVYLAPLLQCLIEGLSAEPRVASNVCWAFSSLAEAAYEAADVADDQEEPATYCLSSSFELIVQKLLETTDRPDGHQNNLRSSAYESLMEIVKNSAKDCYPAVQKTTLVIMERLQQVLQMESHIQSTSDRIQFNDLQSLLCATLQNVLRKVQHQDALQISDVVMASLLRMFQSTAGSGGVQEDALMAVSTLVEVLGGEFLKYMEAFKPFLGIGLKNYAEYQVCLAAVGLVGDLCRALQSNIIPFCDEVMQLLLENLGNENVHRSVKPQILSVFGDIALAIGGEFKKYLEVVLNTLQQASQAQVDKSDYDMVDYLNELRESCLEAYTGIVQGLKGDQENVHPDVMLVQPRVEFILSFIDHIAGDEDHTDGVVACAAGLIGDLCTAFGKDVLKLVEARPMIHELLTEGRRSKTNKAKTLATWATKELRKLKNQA
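FRET biosensor Rango (snurportin 1 IBB between N-terminal EYFP and C-terminal Cerulean), 50 nM in PBS/1 mM DTT/0.02% Tween-20/0.1% BSA, preincubated 5 min RT with compound; 0.125 microM importin beta added, 45 min RT, CFP/YFP FRET ratio read.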
An asterisk follows results filed as active; ? = inconclusive; . = not tested or not shown; & = joins results of further samples; [ ] = dose if it differs, or a comment. The list is partial; count on the stated rates, not on these rows.

No. | GLA inh pH 4.5 | mol | Rango release inh | miR-21 reporter | Rango-impB inh
1 | -1 | COc1ccc(O)c(C(=O)c2cnn(C(=O)c3cc(C)oc3C)c2)c1 | -6% | -5% | -1.6%
2 | . | O=C(NNC(=O)c1ccncc1)c1ccccc1 | -7% | -8% | -0.5%
3 | . | O=c1[nH]c(/C=C\c2cccc(O)c2)nc(O)c1[N+](=O)[O-] | -7% | -1% | 0.3%
4 | 6 | CC(NC(=O)c1cc2ccccc2o1)c1ccccc1 (centres undefined) | 20% | 0%&0% | 0.1%
5 | . | O=C(CN1c2ccccc2S(=O)(=O)c2ccccc21)NCc1ccccc1 | -11% | -8% | 1.3%
6 | . | Cc1ccc(N(C(=O)c2snc(C(N)=O)c2N)C(C(=O)NC2CCCC2)c2ccncc2)cc1 (centres undefined) | -7% | -11% | -0.8%
7 | . | O=C(N[C@@H](Cc1ccccc1)C(=O)NCCc1c[nH]c2ccccc12)c1ccco1 | 2% | 5% | 2.0%
8 | 2 | CC(=O)Nc1sc(C)c(C)c1C(=O)OCC(=O)Nc1cc(S(C)(=O)=O)ccc1Cl | -5% | -1% | 0.1%
9 | 7 | C=CCSC1=C(C#N)C(c2ccccc2OCC)CC(=O)N1 (centres undefined) | -11% | -4% | 2.3%
10 | 7 | Cc1ccc(NC(=S)N(N)CCO)cc1 | 2% | -20% | 0.7%
11 | . | COc1ccc(N(C(=O)c2ccco2)C(C(=O)NC2CCCC2)c2ccco2)cc1OC (centres undefined) | 2% | -4% | -1.1%
12 | . | COc1ccc(C)cc1NC(=O)C1CCN(S(=O)(=O)c2ccccc2)CC1 | 12% | -6% | 2.3%
13 | . | Cc1cccc2cc(-c3nc4ccc(C(=O)O)cc4[nH]3)c(=O)oc12 | ? | -21% | ?
14 | -16 | COc1ccc(/C=N\Nc2ccc([N+](=O)[O-])cc2[N+](=O)[O-])c(C(=O)O)c1OC | -6% | 0% | 2.9%
15 | . | COc1cccc(CN2CC(C(=O)N(C)CC3CCOCC3)CCC2=O)c1 (centres undefined) | -2% | -1% | 3.8%
16 | -11 | CCCCCCSc1ncc(C#N)c(N)n1 | 0% | -41% | -3.9%
17 | -28 | NC(=O)[C@@H]1CCCCNc2c(I)cc([N+](=O)[O-])cc2C(=O)N[C@@H](CCC(=O)O)C(=O)N[C@@H](CO)C(=O)N1 | 5% | -4% | -5.9%
18 | . | Cc1cccc(C(=O)NNC(=O)C2CC2)c1 | ? | -2% | 2.0%
19 | -9 | COc1ccc2cc(CN(CC3CCCO3)C(=S)NCc3ccco3)c(=O)[nH]c2c1 (centres undefined) | -23% | 5% | ?
20 | 4 | Cn1cc(C2N3CC4(C)CN2CC(C)(C3)C4=O)c2ccccc21 (centres undefined) | 1% | -2% | -2.7%

(further entries)
No. | GLA inh pH 4.5 | mol | Rango release inh | miR-21 reporter | Rango-impB inh
21 | 2 | N#CCC(=O)Nc1ccc(C(=O)NCc2cccc(Cl)c2)cc1 | 0% | -2% | ?
22 | -15 | COc1ccc2c(c1)C1(Nc3ccccc3-c3nc4ccccc4n31)C(=O)N2 (centres undefined) | -3% | -1% | 2.1%
23 | -4[21.1 µM] | Cc1cccc(NC(=O)CN2C(=O)N/C(=C\c3cccn3-c3cccc(C(=O)O)c3)C2=O)c1 | 8% | 2% | ?
24 | . | C=CC1=C(C(=O)O)N2C(=O)[C@@H](NC(=O)/C(=N\OCC(=O)O)c3csc(N)n3)[C@H]2SC1 | -6% | . | -2.5%
25 | -7 | O=C(CCNS(=O)(=O)c1cccs1)NCc1cccs1 | 12% | 0% | -1.1%
26 | -3 | COc1ccc(Br)c(C(=O)NC(C)(C)CO)c1 | -2% | -1% | 1.8%
27 | -10 | O=C(Nc1ccc2oc(-c3ccccc3)nc2c1)c1ccccc1F | 6% | -63% | 1.6%
28 | . | Cn1c(=O)oc2cc(S(=O)(=O)CCC(=O)NCCc3ccccc3)ccc21 | -1% | -7%&2% | -0.5%
29 | 3 | Cc1cc(C)n(-c2ccc(C(=O)NCCCN3CCOCC3)cc2)n1 | 2% | -1% | -1.8%
30 | 2 | CCn1c(SC/C=C/c2ccccc2)nnc1-c1cnccn1 | -18% | -9% | -0.8%
31 | -11 | COC(=O)C1=NN(c2ccccc2)C2C(=O)N(c3ccccc3OC)C(=O)C12 (centres undefined) | -19% | -7% | ?
32 | 0 | Cn1c(CN2CCOCC2)nc2cc(NC(=O)c3ccc(Cl)cc3)ccc21 | 1% | 14% | -0.8%
33 | . | Cc1ccc(OCC(=O)N2CCN(S(=O)(=O)c3ccc(Cl)s3)CC2)cc1C | 7% | . | 3.7%
34 | . | CCOc1ccc(/C=N/n2c(COc3ccccc3)n[nH]c2=S)cc1OC | -8% | -23% | 5.6%
35 | -4 | Cc1nc2sc3c(c2c(=N)n1N)CC(C)(C)OC3 | -7% | 5% | -2.1%
36 | . | Cc1ccccc1N1CC(C(=O)N2CC(C)OC(C)C2)CC1=O (centres undefined) | 4% | -3% | 0.9%
37 | 0 | Cc1ccc(-n2nnnc2SCC(=O)N2c3ccccc3NC(=O)C2(C)C)cc1 | -3% | -5% | 0.3%
38 | . | CC(NC(=O)c1ccco1)C12CC3CC(CC(C3)C1)C2 (centres undefined) | 73% | . | -0.2%
39 | . | COc1ccc(C)cc1NC(=O)c1cc(S(=O)(=O)N2CCCC2)cn1C | 24% | 1% | ?
40 | . | CC1CCCCN1C(=O)CSc1nnc2c(n1)[nH]c1ccc(F)cc12 (centres undefined) | -1% | 1% | -0.3%

Following part:
No. | GLA inh pH 4.5 | mol | Rango release inh | miR-21 reporter | Rango-impB inh
41 | . | COc1ccc(/C=C(\NC(=O)c2ccc(Cl)cc2)C(=O)NCCCn2ccnc2)cc1OC | -1% | 0% | -1.6%
42 | . | Cc1nn(CC(C)C(=O)N2CCN(S(=O)(=O)c3ccc(Cl)cc3)CC2)c(C)c1C (centres undefined) | 4% | 10% | 0.2%
43 | . | COc1ccc(CCN=C(N)NS(=O)(=O)c2cc(F)ccc2F)cc1 | -16% | -5% | 0.8%
44 | 1 | Cc1cc(NC(=O)C2CC2)n(-c2nc3ccccc3s2)n1 | 4% | -20% | 2.8%
45 | . | NC(=O)c1nn2c(C(F)(F)F)cc(-c3ccccc3)nc2c1Br | -8% | -1% | ?
46 | -4 | COc1cc(NC(=O)c2ccc3snnc3c2)cc(OC)c1 | -13% | -47% | 3.8%
47 | 0 | Cc1noc(C)c1N=Nc1ccccc1C(=O)O | -18% | 3% | -3.6%
48 | . | O=C(O)CC(NC(=O)c1ccco1)c1ccco1 (centres undefined) | -9% | 0% | 2.0%
49 | 8 | O=C(NNc1nc2cc3c(cc2s1)OCO3)c1cccc(F)c1 | ? | -49% | 0.2%
50 | . | Cc1cc(NC(=O)COc2ccc(C)c(C)c2)no1 | 1% | -36% | 4.9%
51 | -9 | COc1ccccc1N1CCN(Cc2ccc(Br)o2)CC1 | 8% | -5% | -0.6%
52 | -2 | CC(=O)NN1C(=O)c2ccc(Oc3ccc([N+](=O)[O-])cc3)cc2C1=O | 2% | -1% | ?
53 | -1 | NS(=O)(=O)c1ccc(NC(=O)c2cccc(Cl)c2)cc1 | -4% | -5% | 2.7%
54 | . | C=CC[C@H](CC(=O)N(CCO)Cc1ccccc1)C(=O)N[C@@H](COC(=O)[C@@H](CC=C)Cc1ccc(F)cc1)Cc1c[nH]c2ccccc12 | 6% | . | 4.3%
55 | -4 | O=C(O)C1CC=CCC1C(=O)Nc1ccc(N2CCN(Cc3ccccc3)CC2)cc1 (centres undefined) | 1% | -2% | -3.3%
56 | -15 | CC(NC(=O)c1ccc(N(C)C)cc1)c1ccc(F)cc1 (centres undefined) | -3% | -5% | -0.1%
57 | 6 | COc1ccc(OC)c(NC(=O)COC(=O)c2ccc(-n3cnnn3)cc2)c1 | -7% | -2% | 4.4%
58 | . | CCCC(=O)N1CCN(Cc2nc3cc([N+](=O)[O-])ccc3n2C)CC1 | 8% | -11% | 1.6%
59 | . | CCCCn1c(N)c(N(CCOC)C(=O)COC(=O)CNC(=O)c2ccc(Cl)c(Cl)c2)c(=O)[nH]c1=O | 14% | . | -1.9%
60 | 3 | O=Cc1[nH]c2ccccc2c1N(C(=O)CCl)c1ccccc1 | -5% | 26% | -1.8%

Later entries:
No. | GLA inh pH 4.5 | mol | Rango release inh | miR-21 reporter | Rango-impB inh
61 | -4 | COc1ccc(C2C(C(C)=O)=C(C)N=c3s/c(=C/c4ccc5c(c4)OCO5)c(=O)n32)cc1 (centres undefined) | . | 0% | .
62 | 2 | Cc1ccc(-n2c(SCC(=O)N/N=C/c3ccccc3C(=O)O)nnc2-c2ccccc2)cc1 | 1% | -7% | 1.2%
63 | . | CCOc1cc(C(=O)N(CC)CC(=O)Nc2c(F)cccc2F)ccc1OCC(=O)N1CCOCC1 | 1% | . | 0.0%
64 | . | COc1cc(/C=C2\SC(=S)N(CCC(=O)NCCc3ccccc3)C2=O)cc(OC)c1OC | 16% | 0% | 0.0%
65 | -8 | Cc1ccc(C(O)(C(=O)NNc2ccccn2)c2ccc(C)cc2)cc1 | 7% | 6% | 1.5%
66 | . | CC[C@@]1(C(=O)OC)N[C@H](CN(C)C(=O)c2ccc(C)cc2)[C@@H]2C(=O)N(C)C(=O)[C@@H]21 | 3% | . | 0.5%
67 | 1 | O=C(NC(=S)Nc1cccc2cnccc12)c1ccccc1 | -12% | -2% | 0.4%
68 | . | O=C(O)CC(Cc1ccc(Cl)cc1)C(=O)Nc1cc(Cl)ccc1Cl (centres undefined) | -1% | 0% | -2.9%
69 | 1 | CCOC(=O)Cn1c(=O)n(Cc2ccco2)c(=O)c2ccc(C(=O)NC3CCCC3)cc21 | 18% | -1% | 0.5%
70 | . | Cc1nnc(SCC(=O)Nc2ccc([N+](=O)[O-])cc2)n1CC1CCCO1 (centres undefined) | -1% | 3% | -4.2%
71 | . | O=C(NN1CCOCC1)c1cccc(Br)c1 | 1% | . | 0.8%
72 | . | COc1ccc(OC)c(C(C)NS(=O)(=O)c2cccs2)c1 (centres undefined) | -6% | . | -0.1%
73 | -14 | O=C(NCc1ccco1)c1nc(-c2ccc(F)cc2)no1 | -4% | -25% | -3.8%
74 | -1 | Cn1ccnc1Sc1nc2ccccc2nc1NS(=O)(=O)c1ccccc1 | -16% | -36% | ?
75 | 4 | Cc1cccc(N2C(=O)CC(N3CCN(C(=O)c4ccccc4)CC3)C2=O)c1 (centres undefined) | 6% | -2% | 0.4%
76 | . | C[C@@H]1CCC(=O)N(C[C@@H](C)CSc2ccccc2)CC1 | 7% | -13% | -1.1%
77 | . | C=CCOc1ccc(C(=O)Nc2ccccc2C(=O)NCc2cccnc2)cc1 | -7% | 13% | 1.8%
78 | -8 | O=C(CN1CCCC1)Nc1cc(C(F)(F)F)ccc1Cl | 10% | 0% | -0.5%
79 | 0 | COC(=O)N/N=C(\CCC(=O)O)c1cccs1 | -10% | -19% | 5.6%
80 | 4 | CCc1c(C)sc(NC(=O)c2cc(C(C)C)on2)c1C#N | -1% | -39% | 3.4%

Other entries
No. | GLA inh pH 4.5 | mol | Rango release inh | miR-21 reporter | Rango-impB inh
81 | . | O=C(NCc1ccccn1)c1cc(S(=O)(=O)N2CCCCC2)ccc1Cl | 0% | . | 3.5%
82 | -4 | CCc1nnc(NC(=O)c2oc3cc(C)c(C)cc3c2C)s1 | -11% | -24% | ?
83 | . | CCc1ccc(C(=O)NNC(=O)C2CC(=O)N(Cc3ccccc3)C2)cc1 (centres undefined) | 0% | . | ?
84 | . | COc1ccccc1N(CC(=O)N1CCCC1)S(=O)(=O)c1ccc(C)cc1 | -8% | 1% | 1.1%
85 | . | Cc1ccc(Cl)cc1N1CCN(S(=O)(=O)c2c(C)[nH]c(C)c2C(=O)N2CCCC2)CC1 | 6% | 4% | 5.1%
86 | 7 | O=C(Nc1ccsn1)c1ccc(Cl)cc1Cl | -2% | -45% | 1.5%
87 | . | CC(C)c1cc(C(=O)N2CCCC(Nc3ccc(F)cc3)C2)nc(N)n1 (centres undefined) | 6% | 0% | 0.7%
88 | 0 | CC(C)CN1C(=O)C(NC(=O)C2CC2)(C(F)(F)F)C2=C1CC(C)(C)CC2=O (centres undefined) | ? | 0% | ?
